# Screens (PubChem)
# StopGo reporter – lowers the luciferase signal of an FMDV 2A StopGo reporter. hit rate 1.2% among 410,000. Potency, µM (doses to about 57.9 µM), for inactives: at the top dose signal change, negative = less light. human cells with a luciferase reporter of 2A StopGo recoding; control for the full effect not named in the record. AID 1159524; active = well fitted falling curve with a large enough effect; inconclusive = small, poorly fitted or top-dose-only effect; inactive = no such curve, though single readings can be large or run the other way; tested in HEK293T cells; also: % is scaled to controls: 0 for no effect and ±100 for the full control effect; nearly all actives have a fitted effect of over 45% in size; luciferase light after 4 h
# SARS PLpro yeast – inhibitors of SARS-CoV papain-like protease in yeast; AID 485353; hit rate 0.19% among 330,000; S. cerevisiae expressing SARS-CoV PLpro, growth rescue; control for the full effect not named in the record; Potency, µM (series often up to 32.9 µM), for the others: at the top dose activity, positive = growth rescue; active means well fitted rising curve with a large enough effect; inconclusive means small, poorly fitted or top-dose-only effect; inactive means no such curve, though single readings can be large or run the other way; also: 0% is about no effect; nearly all actives have a fitted effect of over 55% in size; growth read by luminescence after 48 h
# RE007 growth inh – less growth of the S. pombe RE007 Vpr strain. AID 651644. hit rate 0.21% among 360,000. Potency, µM (highest dose often 92.2 µM), inactives show at the highest dose activity change, negative = less growth. S. pombe RE007 Vpr strain, BacTiter-Glo ATP luminescence, 24 h; control for the full effect not named in the record; active = well fitted falling curve with a large enough effect; inconclusive = small, poorly fitted or top-dose-only effect; inactive = no such curve, though single readings can be large or run the other way;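 also: % is scaled to controls: 0 for no effect and ±100 for the full control effect; nearly all actives have a fitted effect of over 50% in size; the assay follows cell death caused by Vpr and the record does not say whether a fall means rescue or toxicity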
#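 Fission yeast RE007 carrying one integrated HIV-1 vpr copy, seeded at OD 0.01 in PMG+AL medium with 23 nL pinned compound. Grown 24 h at 30 degrees; viability read by BacTiter-Glo luminescence after 5 min.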
# The depositor's hits bear a star; ? = inconclusive; [ ] = another dose, or the depositor's remark. Potency is read from the fitted curve at half-maximal effect. Not all compounds are listed; count on the stated rates, not on these rows.
no.	compound	RE007 growth inh	SARS PLpro yeast	StopGo reporter
1	CCC1(c2ccccc2)ON(c2c(Br)cccc2Br)C1=O (stereo not drawn)	-9.5%	4.7%	-14.7%
2	CC(C)Cn1c(CCC(N)=O)nnc1SC(C)C(=O)Nc1ccc2c(c1)OCO2 (stereo not drawn)	10.4%	-0.5%	-20.0%
3	CC1CCCCC12NC(=O)N(CC(=O)NCc1ccco1)C2=O (stereo not drawn)	-0.2%	3.9%	-1.8%
4	COC(=O)[C@@]12CCCCN1[C@H](c1ccc(SC3CCCCC3)cc1)[C@@H]1C(=O)N(C)C(=O)[C@@H]12	6.1%	-4.7%	?
5	Cc1csc(NC(=O)c2cc(C)on2)n1	-10.2%	-0.5%	68.2%[activator]
6	Cc1ccc(S(=O)(=O)N2[C@@H](c3ccc(F)cc3)C(C(=O)O)=CC[C@H]2c2ccc(Cl)cc2)cc1	-2.9%	-8.7%	-0.7%
7	CCCN(CC(=O)Nc1ccccc1C)C(=O)/C=C/c1ccc(OCC)c(OC)c1	-9.4%	-0.9%	3.3%
8	Cc1ccc2nc(NC(=O)COC(=O)c3cccnc3)sc2c1	10.8%	-2.0%	44.8%[activator]
9	CCN(CC)C(=O)[C@H]1C[C@H](CC(=O)NCc2ccco2)C(=O)N2CCc3c([nH]c4ccc(Cl)cc34)[C@]12C	0.7%	28.5%	?
10	O=C(CN1CCOCC1)NNC(=O)c1ccc(Cl)cc1	-6.3%	-0.8%	-13.7%
11	COC(=O)C1=C(c2ccc(Cl)c(C(F)(F)F)c2)C[C@@H]2CC[C@H]1N2C(=O)NCCOc1ccccc1Cl	17.6%	-3.9%	?
12	CCCN(CC(=O)Nc1ccccc1C)C(=O)c1ccc(-c2ccc([N+](=O)[O-])cc2)o1	6.2%	-7.7%	?
13	C(=C(c1ccccc1)c1ccccc1)c1ccccn1	-4.2%	-17.9%	-6.2%
14	O=C(Nc1cnccn1)Nc1ccc(Cl)cc1Cl	-2.6%	-0.2%	55.7%[activator]
15	CCCCCc1cc(OC)cc2c1C(=O)OC(C)(C)O2	-17.6%	-2.7%	0.0%
16	COc1ccc(C(=O)NNC(=O)COC(=O)c2sccc2C)cc1	2.8%	-0.2%	-9.7%
17	CC1CN(S(=O)(=O)c2cccc(C(=O)NCc3ccco3)c2)CC(C)O1 (stereo not drawn)	-0.3%	-1.5%	-4.3%
18	CN1CCCN(S(=O)(=O)c2cccc(C(F)(F)F)c2)c2nc3ccccc3nc21	0.4%	-0.2%	-21.0%
19	CC(C)Oc1ccc(C(=O)Nc2ccc([N+](=O)[O-])cc2)cc1	7.4%	0.1%	40.8%[activator]
20	Cc1cc(C)cc(OCC(=O)Nc2ccc3c(c2)OCCO3)c1	-11.1%	-4.9%	12.8%

# Arranged by length of the SMILES (high to low): some entries from above.
no.	compound	RE007 growth inh	SARS PLpro yeast	StopGo reporter
9	CCN(CC)C(=O)[C@H]1C[C@H](CC(=O)NCc2ccco2)C(=O)N2CCc3c([nH]c4ccc(Cl)cc34)[C@]12C	0.7%	28.5%	?
17	CC1CN(S(=O)(=O)c2cccc(C(=O)NCc3ccco3)c2)CC(C)O1 (stereo not drawn)	-0.3%	-1.5%	-4.3%
10	O=C(CN1CCOCC1)NNC(=O)c1ccc(Cl)cc1	-6.3%	-0.8%	-13.7%

# Continuation:
no.	compound	RE007 growth inh	SARS PLpro yeast	StopGo reporter
21	CC(=O)c1c(C)[nH]c(C(=O)Nc2cccc(S(=O)(=O)N3CCCCC3)c2)c1C	0.1%	-1.3%	-2.8%
22	C[C@H]1CN([C@@H](C)CO)C(=O)c2cccc(NC(=O)Nc3ccc(C(F)(F)F)cc3)c2O[C@@H]1CN(C)Cc1ccc(Cl)c(Cl)c1	5.7%	0.7%	?
23	Nn1c(SCC(=O)NC2CCS(=O)(=O)C2)nc2scc(-c3ccccc3)c2c1=O (stereo not drawn)	-11.9%	-3.5%	-21.2%
24	O=C(C[n+]1cccc(C(=O)N/N=C/c2ccc(Br)cc2)c1)c1ccccc1	7.0%	-1.9%	-10.5%
25	O=C(c1ccc([N+](=O)[O-])o1)N(Cc1nnc(-c2ccccc2Cl)o1)C1CC1	-0.3%	-1.1%	8.2%
26	O=C(NCCCn1ccnc1)c1ccc(-c2cccc(C(F)(F)F)c2)o1	-13.5%	3.6%	-7.0%
27	Cc1noc(C)c1C(=O)Nc1nc2ccc(F)cc2s1	?	-1.1%	20.8%
28	O=C(NC1=NCCS1)C1CCN(S(=O)(=O)c2ccccc2C(F)(F)F)CC1	0.6%	-1.4%	-5.1%
29	CC12CCC(=O)N1C(C(=O)NNC(=O)COc1ccccc1Cl)CS2 (stereo not drawn)	4.9%	2.5%	-6.9%
30	CN1C(=O)C2(CCCCC2)C1c1ccccc1 (stereo not drawn)	1.0%	-12.1%	-4.8%
31	C[C@H](CO)N1C[C@H](C)[C@@H](CN(C)Cc2ccc(C(=O)O)cc2)Oc2c(NC(=O)c3ccncc3)cccc2C1=O	-1.8%	6.4%	6.7%
32	CC(=O)C[C@H](O)CC(=O)[C@H]1OC(=O)[C@@H](C)C/C=C\Cc2ccccc21	2.7%	-1.1%	-6.1%
33	CCOc1ccc(-c2nnc(SCC(=O)N3CCNC3=O)o2)cc1	10.4%	10.1%	39.6%[activator]
34	CCC(C(=O)NC1C(=O)N2C(C(=O)O)=C(CSc3nnc(C)s3)CSC12)c1ccccc1 (stereo not drawn)	-2.0%	-0.7%	-6.3%
35	CCCCn1c(N)c(N(CCC(C)C)C(=O)CSc2nncn2-c2ccccc2)c(=O)[nH]c1=O	-7.0%	13.7%	-8.9%
36	CCc1ccc(NC(=O)c2cc(-c3ccc(F)cc3)on2)cc1	-4.4%	-1.2%	0.7%
37	O=C(CN1C(=O)NC2(CCCCCCC2)C1=O)NCc1ccc(Cl)cc1	-2.9%	1.1%	-18.4%
38	O=C(CN1C(=O)c2ccccc2S1(=O)=O)Nc1ncc(Cl)cc1Cl	55.5%	-4.6%	?
39	O=C(CN(Cc1ccco1)Cc1ccco1)Nc1cc(S(=O)(=O)N2CCCCC2)ccc1Cl	0.6%	-4.5%	?
40	Cc1ccc(-c2nn(-c3ccccc3)cc2C(=O)NC2CCC(O)CC2)cc1 (stereo not drawn)	-3.6%	-4.1%	20.0%
41	CCN1C(=O)[C@H]2[C@H]3CN=C(SCc4ccc(C#N)cc4)N3[C@@](Cc3ccccc3)(C(=O)OC)[C@H]2C1=O	-9.1%	7.8%	-20.7%
42	COC12CCC3(CC1C(C)(O)C(C)(C)C)[C@H]1Cc4ccc(O)c5c4[C@@]3(CCN1CC1CC1)C2O5 (stereo partly drawn)	-15.5%	-4.9%	0.0%
43	CCN(CC)Cc1ccccc1CNC(=O)c1cccc(S(=O)(=O)Nc2ccc3c(c2)OCO3)c1	-5.3%	3.9%	59.3%[activator]
44	CC(O)[C@H]1CC[C@H]2[C@@H]3CC[C@H]4C[C@@H](O)CC[C@]4(C)[C@H]3/C(=N/O)C[C@]12C (stereo partly drawn)	11.9%	-1.4%	-16.6%
45	O=C(c1ccc(Cl)c(S(=O)(=O)N2CCCCC2)c1)N1CCCC(C(F)(F)F)C1 (stereo not drawn)	-5.1%	-2.4%	-22.6%
46	COc1ccc(NC(=O)COC(=O)CNC(=O)c2cccs2)cc1Cl	5.9%	-4.4%	-8.3%
47	O=C(COc1ccccc1-c1ccccc1)NN=C1CCCC1	10.7%	0.0%	-17.0%
48	COc1ccc(C(=O)OCC(=O)NCC2CCCO2)c(F)c1 (stereo not drawn)	-12.4%	0.7%	-9.0%
49	O=C1C(c2ccccc2)=[N+]([O-])c2ccccc21	?	1.3%	?
50	C=C1CCC2[C@](C)(CO)[C@H](O)CC[C@@]2(C)[C@@H]1/C=C/C1=CCOC1=O (stereo partly drawn)	-3.3%	-0.5%	?
51	CCc1nc2ccc(C(=O)N(CC)CC(=O)Nc3c(F)cccc3F)cc2nc1CC	3.5%	-6.3%	-20.0%
52	O=C(COC(=O)C1CC(=O)N(Cc2ccco2)C1)Nc1nc(-c2ccc(F)cc2)cs1 (stereo not drawn)	3.9%	3.3%	37.0%[activator]
53	CCOc1ccc(CCNC(=O)COC(=O)c2oc3ccccc3c2COC)cc1OCC	-10.6%	-4.4%	-30.2%
54	C[C@H](CO)N1C[C@H](C)[C@@H](CN(C)Cc2ccc(-c3ccccc3)cc2)Oc2c(NC(=O)c3ccncc3)cccc2C1=O	-13.9%	-2.2%	-20.0%
55	COc1ccc([C@H]2CC(=O)C=C(c3cccc4c3Oc3ccccc3S4)C2)cc1	8.2%	-4.8%	7.1%
56	O=C(C[C@H]1C/C=C\CCC(=O)O[C@@H](c2ccccc2)CNC1=O)NCCO	-1.5%	5.4%	-1.6%
57	COc1cccc(C(=O)OCC(=O)c2[nH]c(C)c(C(C)=O)c2C)c1	0.6%	1.4%	-15.2%
58	Cc1ccc(S(=O)(=O)N(C)C)cc1NC(=O)C(C)OC(=O)c1ccc2ccccc2n1 (stereo not drawn)	-7.0%	0.9%	3.6%
59	O=C1CN(C(=O)COC(=O)Cc2ccccc2F)c2ccccc2N1	8.1%	-0.7%	-14.0%
60	O=C(c1ccco1)N1CCN(C(=O)c2ccc(-c3ccccc3Cl)o2)CC1	-20.5%	-12.2%	3.3%
61	Cc1cccc(OC(C)C(=O)Nc2cc(Cl)ccc2-n2cncn2)c1 (stereo not drawn)	-5.2%	6.3%	-19.5%
62	O=C1CCC/C(=N\NC(=O)c2ccc(CSc3cccc4cccnc34)cc2)C1	16.4%	1.6%	-10.1%
63	Cc1cc(C(=O)CCC(=O)Nc2ccc(S(N)(=O)=O)cc2)c(C)s1	-1.5%	0.9%	-25.0%
64	Cc1noc(C)c1COc1ccccc1C(=O)N(C)CC(=O)Nc1ccc(F)c(F)c1F	11.9%	-7.4%	-14.6%
65	CC1(C)NC(=O)N(CCCC(=O)Nc2ccc(C(F)(F)F)cc2)C1=O	-4.1%	2.8%	-16.5%
66	COc1ccc(Cl)cc1NC(=O)COC(=O)C1CCCCC1	?	-2.3%	-21.0%
67	Nc1ccc(-c2ccc(C(=O)O)s2)cn1	7.1%	1.2%	18.2%
68	CN1CCN(c2ccc(S(=O)(=O)N3CCCCC3)cc2N)CC1	2.7%	3.8%	-12.9%
69	CCC(C)Sc1ccc([C@@H]2[C@@H]3C(=O)N(CC)C(=O)[C@@H]3[C@]3(C(=O)OC)CCCCN23)cc1OC (stereo partly drawn)	13.9%	-7.1%	-24.4%
70	C=CCC[C@@H](Cc1ccc(F)cc1)C(=O)OC[C@@H](C)NC(=O)[C@@H](CC=C)CC(=O)N[C@H](CO)Cc1ccccc1	-4.6%	-9.1%	39.8µM*
71	COc1ccc2c(c1)[C@H]1[C@H](CO2)[C@H](c2ccccc2)[C@]2(C)C(=O)Nc3cc(OC)c(OC)cc3C(=O)N12	-1.7%	-1.4%	-29.5%
72	O=C(COc1ccc(F)cc1)NCC1(N2CCOCC2)CCCCC1	4.5%	-5.2%	-0.7%
73	COc1ccc(-c2c(-c3ccc(S(C)(=O)=O)cc3)sc3ccc(OC)cc23)cc1	-2.7%	-17.7%	?
74	C[C@H](NC(N)=O)C(=O)OCC(=O)Nc1ccc(OC(F)F)cc1	1.4%	0.3%	2.7%
75	CC(C)C[C@H]1CN=C(N(C)C)N1CC1CCCC1	-20.8%	-4.5%	-0.9%
76	CCCCn1c(N)c(N(CC(C)C)C(=O)CSc2ccc3c(c2)OCCO3)c(=O)[nH]c1=O	-8.9%	4.0%	-23.5%
77	CC(=O)N1CCC2(CC1)CC(=O)c1cc(OCC(=O)N3CCOCC3)ccc1O2	-5.6%	-0.2%	1.8%
78	Cc1[nH][nH]c(=O)c1C=Nc1ccc(C(F)(F)F)cc1	10.2%	-4.2%	-15.5%
79	COC(=O)C1=C(c2ccc(OC)c(OC)c2)C[C@@H]2CC[C@H]1N2C(=O)NCCOc1ccccc1Cl	3.2%	1.3%	-29.1%
80	CN(C)S(=O)(=O)c1cc(NC2CC(=O)N(c3ccc(F)cc3)C2=O)ccc1Cl (stereo not drawn)	-5.2%	-1.4%	-5.9%

# Continued.
no.	compound	RE007 growth inh	SARS PLpro yeast	StopGo reporter
81	CN(C)c1ccc(C#Cc2ccc3cc(CCO)oc(=O)c3c2)cc1	4.9%	2.5%	37.0%[activator]
82	NS(=O)(=O)c1ccc(CCNC(=O)CSc2nc3ccsc3c(=O)n2CC2CCC(C(=O)O)CC2)cc1 (stereo not drawn)	10.8%	0.6%	-14.8%
83	COC(=O)C1=C(c2ccc(C(C)=O)cc2)C[C@@H]2CC[C@H]1N2C(=O)N1CCC(C)CC1	3.9%	1.0%	-10.9%
84	O=C(c1ccc(=O)[nH]n1)N1CCN(S(=O)(=O)c2ccc(C(F)(F)F)cc2)CC1	-24.3%	6.1%	-2.6%
85	CN(C(=O)c1ccccc1C(=O)OCC(=O)Nc1cccc(Br)c1)c1ccccc1	5.7%	-10.4%	-20.1%
